Six1-Eya2 inh = Six1/Eya2 interaction inhibition; AlphaScreen GST-Six1/His-Eya2 binding, biochemical; stronger effect = lower value; control for the full effect not named in the record; activity change, % (no concentration beside the values); 360,000 compounds, 0.56% hits; AID 651725; in the data active = activity change below about -65%; inconclusive = about -30% to -65%; inactive = above about -30%; further: on the % scale 0 is the no-effect control and ±100 the full control effect
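GST-Six1 + His-Eya2 (5X stock: 250/500 nM); Tris pH 8.0, 300 mM NaCl, 0.05% BSA, 0.02% Tween 20; GSH donor/Ni acceptor beads; 1 h 37 °C dark; AlphaScreen readout.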
TRPML1 inh = blocks the human TRPML1 channel; activity change, negative = inhibition, % (no concentration beside the values); 390,000 compounds, 0.02% hits; TRPML1-inducible cells, Ca2+ dye fluorescence, FDSS; stronger effect = lower value; inhibition of EC80 agonist-evoked calcium signal; Q9GZU1; AID 624415; in the data active means activity change below about -50%; inconclusive means about -30% to -50%; inactive means above about -30%;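 further: stimulus is agonist 54-4 at its EC80 concentration; on the % scale 0 is the no-effect control and ±100 the full control effect; compound concentration not given in the record; the text of the record puts the active cut at -80%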
Target sequence (Q9GZU1 whole entry, looked up): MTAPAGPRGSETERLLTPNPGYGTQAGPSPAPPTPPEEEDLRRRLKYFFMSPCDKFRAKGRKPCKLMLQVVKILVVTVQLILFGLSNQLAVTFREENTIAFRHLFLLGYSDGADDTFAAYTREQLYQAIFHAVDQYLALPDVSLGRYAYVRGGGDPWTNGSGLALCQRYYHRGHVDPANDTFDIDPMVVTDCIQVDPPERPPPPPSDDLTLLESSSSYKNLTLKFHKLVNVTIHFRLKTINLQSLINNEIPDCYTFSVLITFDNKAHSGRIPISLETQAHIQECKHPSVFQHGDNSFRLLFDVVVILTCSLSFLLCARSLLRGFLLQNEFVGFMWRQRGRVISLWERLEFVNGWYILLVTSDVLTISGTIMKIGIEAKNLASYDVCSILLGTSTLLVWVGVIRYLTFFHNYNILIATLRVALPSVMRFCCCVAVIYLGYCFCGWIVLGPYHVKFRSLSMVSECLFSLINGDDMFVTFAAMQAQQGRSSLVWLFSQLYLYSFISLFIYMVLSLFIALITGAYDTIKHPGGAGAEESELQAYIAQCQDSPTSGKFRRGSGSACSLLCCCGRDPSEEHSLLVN
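TRPML1-DL cells, Tet-induced overnight (~16 h, 37 °C) at 1,500 cells/well, were loaded with Ca8 no-wash dye plus quencher for 45-90 min at room temperature. Compounds were pinned during FDSS kinetic reading; agonist 54-4 at EC80 (4 uM final) then added.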
TRPML1 agonist = human mucolipin-1 channel agonism; Q9GZU1; TRPML1-expressing cells, Ca2+ dye fluorescence, FDSS; host cell line not named in the record; reference of the full effect not given here; activation, % (concentration not given with the values); 410,000 compounds, 0.12% hits; in the data active = activation above about 50%; inconclusive = about 30% to 50%; inactive = below about 30%; further: 0% is about no effect; the text of the record puts the active cut at 80%
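In this qHTS format, compounds were pin-transferred onto Ca8-dye-loaded TRPML1-DL cells induced with Tet overnight, and intracellular Ca2+ fluorescence was recorded kinetically for 110 s after a 10 s baseline. A subsequent 4uM final 54-4 (EC80) addition followed by a second 110 s read served as the antagonist phase.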
D2 PAM = potentiates the human D2 dopamine receptor allosterically; AID 624464; potentiation, % (no concentration beside the values); P14416; DiscoveRx D2 beta-arrestin cells, luminescence, 90 min; 100% = 57 uM dopamine signal; 360,000 compounds, 0.23% hits; active = potentiation of 50% or more; inconclusive = 30% to 50%; inactive = 30% or less;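 further: compound concentration not given in the record; tested on top of an EC20 dose of dopamine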
Target sequence (P14416 whole entry, looked up): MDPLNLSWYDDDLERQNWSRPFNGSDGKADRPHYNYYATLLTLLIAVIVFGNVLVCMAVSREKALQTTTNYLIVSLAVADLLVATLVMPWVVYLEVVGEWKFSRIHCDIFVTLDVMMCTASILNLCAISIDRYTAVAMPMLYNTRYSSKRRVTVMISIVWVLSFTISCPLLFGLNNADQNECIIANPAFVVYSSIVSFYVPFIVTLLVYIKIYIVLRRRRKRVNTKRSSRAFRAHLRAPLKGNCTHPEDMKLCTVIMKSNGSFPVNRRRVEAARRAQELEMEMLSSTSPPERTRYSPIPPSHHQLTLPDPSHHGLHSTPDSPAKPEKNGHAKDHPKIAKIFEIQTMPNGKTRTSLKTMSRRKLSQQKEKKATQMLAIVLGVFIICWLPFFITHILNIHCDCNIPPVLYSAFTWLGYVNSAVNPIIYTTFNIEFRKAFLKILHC
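PathHunter D2 cells, attached overnight at 37 deg C, received compound in DMSO plus dopamine at EC20 (50 nM final) for 90 min at 37 deg C. Beta-arrestin recruitment was read as luminescence after 1 h with detection reagent at ambient temperature.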
CtBP-E1A inh = blocks the CtBP interaction with E1A; 340,000 compounds, 0.49% hits; activity change, % (no concentration beside the values); AlphaScreen GST-E1A/His-CtBP binding, 1536-well; stronger effect = lower value; control for the full effect not named in the record; in the data active means activity change below about -65%; inconclusive means about -30% to -65%; inactive means above about -30%; further: on the % scale 0 is the no-effect control and ±100 the full control effect
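AlphaScreen with 125 nM GST-E1A and 125 nM His-CtBP (5X stocks) in Tris pH 8.0, 300 mM NaCl, BSA, Tween 20, TCEP. Compounds preincubated 2 h at 37 deg C, then glutathione donor/nickel acceptor beads added for 1 h at 37 deg C in dark.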
TRPV1 PAM = enhances activation of the human vanilloid receptor TRPV1; Q8NER1; TRPV1-expressing cells, Fluo-8 calcium influx, capsaicin EC20 potentiation; host cell line not named in the record; control for the full effect not named in the record; potentiation, % at 8.33 µM; 320,000 compounds, 0.02% hits; active means potentiation above 80%; inconclusive means 30% to 80%; inactive means below 30%; further: 0% is about no effect
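Cells expressing TRPV1 were dye-loaded with Fluo-8 and read kinetically: 10 s baseline, 3 min after compound (agonist portion), then 2 min after EC20 capsaicin (allosteric enhancer portion). Calcium-bound dye fluorescence at 480/520 nm.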
Active calls of the source: *; ? = inconclusive; / = no result given; & = joins results of further samples.

cpd	molecule	Six1-Eya2 inh	TRPML1 inh	TRPML1 agonist	D2 PAM	CtBP-E1A inh	TRPV1 PAM
1	O=C(NC1CC1)c1ccc(C2SCC(=O)N2Cc2ccccc2)cc1 (stereo unspecified)	-4	6	-0.5	-32	-17	-3
2	CCCc1nnc(NC(=O)C2CC(=O)N(CCc3ccc(F)cc3)C2)s1 (stereo unspecified)	7	16	-0.3	-1	-2	-7
3	Cc1cc(S(=O)(=O)N(Cc2ccc(C(C)(C)C)cc2)Cc2cccs2)ccc1-n1cnnn1	0	-19	1.0	-22	4	9
4	Cc1ccc(S(=O)(=O)N2CCC(=O)N([C@H](COCc3ccc(C(F)(F)F)cc3)Cc3ccccc3)CC2)cc1	1	/	8.6	/	0	/
5	O=C(CN(C(=O)CSc1nc2ccccc2o1)c1ccccc1F)NC1CCCCC1	-3	9	6.1	-5	-15	-14
6	COc1c(C(C)C)oc2cc3oc(=O)ccc3cc12	2	10	2.7	-5	-3	-10
7	Cc1ccc(-c2cc(C(=O)Nc3cnn(C(C)C)c3)no2)cc1	4	-10	1.1	-15	1	3
8	COc1ccc(NC(=O)C2CCCN(S(=O)(=O)c3c(C)[nH]c(=O)[nH]c3=O)C2)cc1Cl (stereo unspecified)	-26	5&49	1.4&-0.2	-4	?	-2
9	O=c1c2ccccc2nc(-c2ccc(Cl)cc2Cl)n1CCCn1ccnc1	2	-9	0.3	-1	-10	-8
10	OC[C@@H](O)[C@@H](O[C@H]1O[C@H](CO)[C@@H](O)[C@H](O)[C@H]1O)[C@H](O)[C@@H](O)CO	7	-2	1.1	-8	6	7
11	COc1ccc(OC2C(=O)N(Cc3ccc4c(c3)OCO4)C2c2cccs2)cc1 (stereo unspecified)	-4	55	5.5	-4	8	-12
12	CN(CC(=O)Nc1cccc(F)c1)C(=O)Cc1n[nH]c(=O)c2ccccc12	1	-5	-0.4	-31	1	8
13	C[C@H](NC(=O)c1ncn(Cc2ccccc2)c1C(=O)N[C@@H](C)c1ccccc1)c1ccccc1	-6	19	0.8	-8	-2	12
14	Cc1cc(Cl)ccc1NC(=S)N(CCCN1CCOCC1)Cc1cccs1	-8	2	-0.2	-24	13	12
15	[N-]=[N+]=N[C@@H](CCN1CC[C@H](O)CCC1=O)c1ccccc1	3	-6	-0.6&-0.6	-5	2	-2
16	S=c1[nH]nc(/C=C/c2ccccc2)o1	-1	55	0.3	-23	/	-3
17	O=S1(=O)CC2N=C(N(Cc3ccc(F)cc3Cl)c3ccccc3F)SC2C1 (stereo unspecified)	1	10	1.3	20	4	-6
18	CCN(C(=O)COC(=O)CNC(=O)c1ccc(Cl)cc1Cl)c1c(N)n(Cc2ccccc2)c(=O)[nH]c1=O	3	33	-0.6	0	2	/
19	CC(=O)CC1c2cc(F)ccc2C=C(c2ccsc2)N1c1ccc(C#Cc2cncn2C)cc1 (stereo unspecified)	-5	/	-0.9	/	2	/
20	Cn1c(SCC(N)=O)nnc1-c1ccc(S(=O)(=O)N2CCCC2)cc1	7	13	-0.4	-7	-3	-3
21	CCc1nnc(SCC(=O)NCCC2=CCCCC2)nc1CC	1	?	0.6	-17	-4	2
22	Cc1ccc(C)c(C(O)c2ncc(-c3ccc(Cl)cc3)[nH]2)c1 (stereo unspecified)	-11	/	-0.3	-15	-12	/
23	Cc1ccc(CC(=O)Nc2ccc(OC(F)F)c(Cl)c2)cc1C	9	-9	3.3	-4	4	0
24	CCCc1cc(Nc2ccccc2OCC)n2ncnc2n1	-1	13	0.2	2	-3	10
25	O=C(NCc1ccc(F)cc1)c1cc(C2CCCCN2C(=O)c2ccccc2)on1 (stereo unspecified)	2	0	0.5	-10	6	/
26	Cc1cccc(CSc2nnc(-c3ccco3)o2)c1	10	-1	1.5	0	12	-14
27	CN(C)S(=O)(=O)c1cccc(NC(=O)CCc2c[nH]c3ccccc23)c1	16	2	-0.4	-4	0	5
28	COCCNC(=O)CN(C(=O)CCC(=O)Nc1ccccn1)c1cc(C)ccc1C	1	8	1.2	-2	-7	-6
29	COC(=O)c1ccc(/C=C2/C(=O)Oc3ccccc32)cc1	-4	-15	0.7	-8	-14	-8
30	CN1CCc2c(OCc3ccc(F)cc3)cccc2C1=O	0	-2	0.5	-7	-5	-14
31	CC1CCCCC1NC(=O)c1ccc(S(=O)(=O)NCC2CCCO2)cc1 (stereo unspecified)	-12	18	-0.2	-5	-13	4
32	CC1CC(C)(C)N2C(=O)C(=C(C#N)C#N)c3cccc1c32 (stereo unspecified)	4	0	-0.1	6	0	1
33	COc1ccc(NC(=O)N2CCOCC2)cc1OC	3	-1	0.5	-24	2	9
34	Cc1ccc(NC(=O)C(C)c2ccc(-c3ccccc3)c(F)c2)c(C)c1 (stereo unspecified)	6	-1	2.0	2	-3	12
35	COc1ccccc1C(=O)OCC(=O)NC(C)CCc1ccccc1 (stereo unspecified)	4	25	1.1	-3	7	16
36	COc1ccc(-c2c(C)c3cc(O)ccc3oc2=O)cc1	-14	25	-0.6	-7	-2	8
37	C=CCN(c1ccc(C(=O)Nc2ccc(C)c(C)c2)cc1)S(C)(=O)=O	8	16	1.0	-15	2	-10
38	CC1CCCN(c2ccc(C(=O)OCC(=O)N3c4ccccc4Sc4ccccc43)cc2[N+](=O)[O-])C1 (stereo unspecified)	-25	13	0.1	7	-17	0
39	COC(=O)/C(=C1/Oc2ccc(C)cc2S1)C(F)(F)F	7	5	0.7	-7	/	-2
40	Cc1ccccc1OCc1nc2ccccc2n1C	-2	-10	1.4	0	14	-1
41	COc1ccc(C(=O)CSc2ccc3nnc(-c4cccnc4)n3n2)cc1	-16	-21	-0.1	0	-6	25
42	CCCCCC1CC(CC(=O)Nc2ccc([N+](=O)[O-])cc2)OC1=O (stereo unspecified)	-3	20	-0.6	-5	0	-1
43	O=C(CSc1ncnc2c1cnn2CCO)Nc1cccc(C(F)(F)F)c1	5	-12	-0.1	1	20	4
44	CC(Sc1nnc(COc2ccc(Cl)cc2)n1-c1ccccc1)C(=O)O (stereo unspecified)	9	-9	0.1	-1	2	28
45	CCOc1ncccc1C(=O)OCC(=O)Nc1c(C)cc(C)cc1C	-2	-23	5.7	-7	-5	5
46	O=C(NCc1cccc(Cl)c1)c1cc(COc2ccc3ncccc3c2)on1	-13	4	1.2	-1	-16	-15
47	Cc1cc(C(=O)NC2CCCCC2C)c2ccccc2n1 (stereo unspecified)	-9	-8	-0.1	-8	6	9
48	Cn1c(SCC(=O)Nc2ccc(NC(=O)c3ccccc3F)cc2)nnc1-c1ccncc1	-10	18	-0.1	-4	-12	3
49	COC(=O)c1cc(OC)c(OC)cc1NC(=O)CN1CCOCC1	1	-13	-0.2	-12	8	-4
50	COc1ccc(Cc2c(C3CCCCC3)nc3c4ccccc4ccn23)c(C)c1	1	/	-0.7	-4	-2	/
51	COC(=O)c1c(NC(=O)CSc2nnnn2-c2ccc3c(c2)OCO3)sc(C)c1C	-2	27	0.7	-6	7	5
52	Cc1cc(C)nc(N2CCC(C(=O)Nc3ccc(Oc4ccccc4)cc3)CC2)n1	2	18	2.1	2	10	2
53	CCCN1C(=O)c2ccccc2NC1c1ccc(Br)cc1 (stereo unspecified)	12	6	3.5	0	-6	3
54	CCOc1ccccc1NS(=O)(=O)N(C)C	4	-7	-0.1	-1	0	4
55	COc1ccc(-c2noc(CCN3C(=O)c4ccccc4C3=O)n2)cc1OC	-2	9	1.8	1	2	13
56	COC(=O)C(F)(Sc1c(C)n(C)n(-c2ccccc2)c1=O)C(F)(F)F (stereo unspecified)	-4	-2	0.2	-15	-10	-22
57	CC(=O)Nc1ccc(NC(=O)Cn2cnc(S(=O)(=O)N3CCOCC3)c2)cc1	3	5	-0.2	-7	1	?
58	COc1ccc(CNC(=O)c2sccc2-c2ccccc2)cc1OC	-1	-6	-0.2	-1	6	-2
59	O=C1C=C(c2ccc(Oc3ccccc3)cc2)C[C@@H](c2ccc3c(c2)OCO3)C1	-17	-2	0.3	-1	-7	5
60	CCOc1ccc(CCNC(=O)COC(=O)CSc2ccccc2C)cc1OCC	-7	-16	1.4	15	4	-23

New compounds follow.
cpd	molecule	Six1-Eya2 inh	TRPML1 inh	TRPML1 agonist	D2 PAM	CtBP-E1A inh	TRPV1 PAM
61	C=CCOc1ccc(/C=C/C(=O)OCC(=O)N(C)CC(=O)Nc2ccccc2Cl)cc1	-12	3	0.2	15	-2	-1
62	CCn1c(=O)cc(C(F)(F)F)[nH]c1=S	12	5	2.8	3	2	4
63	CC(=Cc1ccccc1)C(=O)c1ccccc1	-3	-4	-0.3	-9	0	/
64	COP(=O)(OC)C(Nc1cc(Cl)cc(Cl)c1)c1cccc(O)c1 (stereo unspecified)	-1	-4	0.4	-4	-11	5
65	CCCCn1c(NCc2ccccc2O)nc2ccccc21	-2	-7	0.5	-13	-4	6
66	Cc1cccc(C)c1C(O)c1ncc(-c2ccccc2F)[nH]1 (stereo unspecified)	-9	/	-1.1	-8	-2	/
67	C[C@H]1CN(S(=O)C(C)(C)C)[C@@H](CCO)/C1=C\c1ccccc1 (stereo partly specified)	1	14	-0.1	/	5	/
68	COc1ccccc1C/C(N)=N/OC(=O)COc1ccc2ccccc2c1	68	8	0.4	1	109	6
69	CCc1ccc(CN(C)Cc2nc(COc3ccccc3)no2)nc1	-4	7	-0.6	3	3	8
70	O=C(Cn1cccc1C(=O)c1ccccc1)NCCC1=CCCCC1	5	-9	0.4	-28	-19	-21
71	CCOC(=O)C1=C(C)N(c2ccc(OC)cc2)C(=O)/C1=C\c1ccc(O)c(OCC)c1	0	39	-0.6	-13	4	21
72	Cc1cc(=O)oc2cc(OCC(=O)N3CC(C)OC(C)C3)ccc12 (stereo unspecified)	1	-14	0.0	-2	-1	19
73	O=P(O)(C(O)c1ccccc1)C(O)c1ccccc1 (stereo unspecified)	7	13	0.0	-11	4	-24
74	Cc1cc(C)c(S(C)(=O)=O)c(N(C)NC(=O)c2c(F)cccc2F)n1	-12	-2	-0.6	-10	5	13
75	O=C(CNCc1cccs1)Nc1cc(S(=O)(=O)N2CCCC2)ccc1Cl	-6	-17	1.3	-13	-9	-5
76	O=C(O)c1csc(-c2ccccc2)n1	1	/	/	-1	10	18
77	O=C(Nc1ccccc1Cl)N(Cc1nc2ccccc2c(=O)[nH]1)Cc1cccs1	17	11	-0.1	-4	10	3
78	CCCS(=O)(=O)NC(=O)C1(C)CCN(C(=O)c2cc(-c3cccs3)oc2C)C1 (stereo unspecified)	2	/	-0.4	-14	3	/

An excerpt from above, reduced to CtBP-E1A inh:
No.	molecule	CtBP-E1A inh
52	Cc1cc(C)nc(N2CCC(C(=O)Nc3ccc(Oc4ccccc4)cc3)CC2)n1	10
53	CCCN1C(=O)c2ccccc2NC1c1ccc(Br)cc1 (stereo unspecified)	-6
54	CCOc1ccccc1NS(=O)(=O)N(C)C	0
55	COc1ccc(-c2noc(CCN3C(=O)c4ccccc4C3=O)n2)cc1OC	2

Screening results from PubChem.
